Assay outcomes as filed in PubChem BioAssay.
T cruzi inh: inhibitors of intracellular T. cruzi growth, primary screen, luminescence, NIH3T3 host cells. T. cruzi beta-gal in NIH3T3, 90 h. inhibition, % (concentration not given with the values). actives 1.4% (n = 300,000). AID 1885, 2009;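 active = mean inhibition across valid replicates above about 55%, limit read from the data; inconclusive = mean below that limit but half or more replicates reach it; inactive = mean below it, under half of replicates reach it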;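 note: signal also drops with host cell toxicity which is not excluded here; 0% = plate median of DMSO wells and 100% = zero luminescence signal; higher percent means less beta-gal luminescence so fewer parasites; stock transfer was 50 nL into about 50 µL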
rRNA inh HTS: reduced GFP signal of wild-type E. coli, primary screen, bacterial rRNA inhibitor project, GFP/RFP fluorescence, OD600, single point | actives 1.6% (n = 350,000) | E. coli WT GFP vs humanized-ribosome RFP mutants, 24 h; stronger effect = lower value; DMSO median 0, no signal -100 | AID 720706, 2013 | GFP signal change (wild-type ribosome), % (concentration not given with the values);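 active = significant combined selectivity score with lowered wild-type GFP, culture density cut under 30%, mutant RFP and density less affected; inactive = any of these conditions unmet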; note: one replicate is shown; some compounds called inactive have numbers as strong as hits
Beta apoptosis: inhibitors of cytokine-induced beta cell apoptosis, primary screen, luminescence; INS-1E cytokine-induced death, ATP luminescence, 48 h; percent of positive-control rescue, neutral wells zero; protection from apoptosis, % (no concentration beside the values); actives 0.8% (n = 300,000); AID 435005, 2010;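 active = all replicates at 75% or more, or half of them and the mean; inconclusive = half reach 75% but not the mean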;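 note: 0% = cytokine-treated negative control wells and 100% = positive control rescue; higher means more ATP so stronger rescue from cytokine killing; wells of about 40 µL received 100 nL stock; the first replicate is given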
RanGTP-Impb inh: inhibitors of RanGTP-importin-beta interaction, primary screen, biochemical, FRET, CFP-Ran, YFP-importin-beta, homogeneous | inhibition, % (concentration not given with the values) | Ran GTPase (GTP-bound) - importin-beta complex | cell-free CFP-Ran/YFP-importin-beta FRET ratio | actives 1.1% (n = 300,000);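 active = most replicates above 15%; inconclusive = exactly half above 15%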;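 note: 0% = DMSO wells and 100% = Ran loaded with GDP instead of GTP; wells of about 40 µL received 100 nL stock; the first replicate is given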
ALR H2O2 inh: inhibitors of human ALR sulfhydryl oxidase, primary screen, biochemical, H2O2 detection, HRP-luminol luminescence, single point | purified ALR, DTT oxidation | actives 3.8% (n = 290,000) | inhibition, % (no concentration beside the values) | FAD-linked sulfhydryl oxidase ALR (Homo sapiens), P55789;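 active = mean and each replicate at 75% or more; inconclusive = only one of the two met; inactive = neither met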;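 note: stock transfer was 7.5 nL into about 7.5 µL; 0% = neutral wells and 100% = wells with inactivated enzyme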
Target sequence (P55789 whole entry, looked up): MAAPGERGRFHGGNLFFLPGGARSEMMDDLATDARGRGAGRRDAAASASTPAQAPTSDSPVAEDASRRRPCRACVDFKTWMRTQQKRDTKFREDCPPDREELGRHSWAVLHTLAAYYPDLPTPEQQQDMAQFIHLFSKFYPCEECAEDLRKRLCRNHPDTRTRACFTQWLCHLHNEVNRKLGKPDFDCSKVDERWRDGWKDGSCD
Calb FLC: C. albicans growth inhibition with fluconazole, primary screen, CaCi-2 strain, Alamar Blue fluorescence; growth inhibition, % (test concentration not listed); actives 0.57% (n = 300,000); AID 1979, 2009; C. albicans CaCi-2 (fluconazole-resistant clinical isolate) + fluconazole, 48 h;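 active = most replicates above 75%; inconclusive = exactly half above 75%; inactive = most below 75%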;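 note: all wells also contain fluconazole at 8 µg/ml as a sub-toxic cotreatment; 0% = median of DMSO wells and 100% = median of geldanamycin control wells; wells of about 8 µL received 7.5 nL stock; the first replicate is given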
FGF22 binding: binders of human FGF22 protein, primary screen, FGF22 synaptogenesis inhibitor project, biophysical, thermal shift, single point; recombinant FGF22 thermal shift, SYPRO orange fluorescence; percent of sucrose octasulfate shift, DMSO zero; calls only at 9.99 µM; Fibroblast growth factor 22 (Homo sapiens), Q9HCT0; actives 1.5% (n = 340,000);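 active = melting point raised past a set limit in the mean and every replicate; inconclusive = no clear call; three in four hits are not shown here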
Target sequence (Q9HCT0 whole entry, looked up): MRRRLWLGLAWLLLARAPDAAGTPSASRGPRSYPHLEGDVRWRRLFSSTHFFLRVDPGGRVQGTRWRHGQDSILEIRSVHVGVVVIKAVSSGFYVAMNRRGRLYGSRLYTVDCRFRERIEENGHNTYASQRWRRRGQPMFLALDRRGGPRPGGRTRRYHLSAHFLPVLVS
AF4-AF9 inh: inhibitors of AF4 peptide binding to AF9, primary screen, biochemical, AlphaScreen, biotin-AF4 peptide, FLAG-AF9, single point; inhibition, % at 10 µM; AID 651704, 2012; actives 0.47% (n = 350,000); Protein AF-9 (Homo sapiens), P42568;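 active = every replicate reaching a set inhibition limit, whatever the replicate mean, cut at about 25% in these data; inconclusive = mean inhibition reaches that limit but some replicates miss it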;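 note: 0% = plate neutral control median and 100% = total signal loss; the record names both 10 and 1 µM as test concentration; the first replicate is given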
Target sequence (P42568 whole entry, looked up): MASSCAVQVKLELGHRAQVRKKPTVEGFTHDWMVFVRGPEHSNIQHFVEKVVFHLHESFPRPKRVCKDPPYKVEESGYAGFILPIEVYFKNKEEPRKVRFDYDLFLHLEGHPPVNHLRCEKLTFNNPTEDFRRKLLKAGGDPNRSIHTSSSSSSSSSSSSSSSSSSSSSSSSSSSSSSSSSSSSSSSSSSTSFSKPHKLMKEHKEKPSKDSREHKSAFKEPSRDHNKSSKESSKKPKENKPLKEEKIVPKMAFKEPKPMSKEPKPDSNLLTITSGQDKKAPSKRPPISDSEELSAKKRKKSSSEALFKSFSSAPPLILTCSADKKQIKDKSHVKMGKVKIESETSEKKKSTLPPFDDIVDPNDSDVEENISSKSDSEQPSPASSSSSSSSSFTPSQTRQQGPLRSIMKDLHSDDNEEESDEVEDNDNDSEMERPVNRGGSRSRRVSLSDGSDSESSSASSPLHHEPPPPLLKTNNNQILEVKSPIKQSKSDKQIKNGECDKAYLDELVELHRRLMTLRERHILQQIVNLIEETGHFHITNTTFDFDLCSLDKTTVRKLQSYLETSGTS
rRNA inh HTS OD600: also measured in rRNA inh HTS; calls as there; OD600 change, %; measured here: OD600 growth;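 optical density of the mix in the first replicate; 0 = DMSO median and -100 = no signal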
rRNA inh HTS RFP: also measured in rRNA inh HTS; calls as there; RFP signal change, %; measured here: RFP humanized mutant strains;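 first replicate; 0 = DMSO median and -100 = no signal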
An asterisk follows results filed as active; i = inactive; ? = inconclusive; · = no result given. These rows are one share of the data; rates above refer to the full screens.

Molecule | T cruzi inh | rRNA inh HTS | rRNA inh HTS OD600 | rRNA inh HTS RFP | Beta apoptosis | RanGTP-Impb inh | ALR H2O2 inh | Calb FLC | FGF22 binding | AF4-AF9 inh
O=C(CN1CCN(S(=O)(=O)c2ccccc2)CC1)NC(=O)NC1CCCCC1 | -1 | · | · | · | -4 | -3.3 | -20 | 13 | · | ·
Cc1ccc(NC(=O)c2c(C)nc(Nc3nc4ccccc4o3)nc2C)cc1 | -5 | · | · | · | 5 | 4.2 | · | 10 | · | ·
COc1ccccc1NC(=O)N(CCCN1CCOCC1)Cc1cc2cc3c(cc2[nH]c1=O)OCO3 | 5 | · | · | · | -7 | -13 | -10 | 18 | · | ·
CCOC(=O)C1(CC)NC(c2ccc(OC)c(OC)c2)C2C(=O)N(c3cccc(C(C)=O)c3)C(=O)C21 (stereo not given) | 6 | · | · | · | -1 | -1.4 | 5 | -10 | i | -1.0
O=C(Cn1c(=O)oc2ccccc21)Nc1nc(-c2ccc(Br)cc2)cs1 | 6 | 15 | 8 | -0.3 | 4 | 1.7 | · | 1 | i | 2.2
S=c1[nH]nc(Nc2cccc3ccccc23)s1 | 1 | -21 | -9 | 1.2 | 4 | -3.2 | 97* | -2 | i | -6.9
CCOC(=O)C1CCN(C(=O)C2(NC(=O)Nc3ccc(F)cc3F)CCCCC2)CC1 | -4 | 2 | 20 | -2.3 | -3 | -2.9 | -19 | 3 | i | -2.8
CC(NCc1cccc(OCc2ccccc2)c1)C(O)c1ccccc1 (stereo not given) | 9 | -18 | -41 | 23 | 0 | ? | -13 | -5 | i | 12
O=C1Nc2ccccc2N=C(c2ccccc2)c2ccccc21 | 17 | -28* | -21* | -6.8* | -2 | -1.9 | 83* | -5 | i | 1.6
COc1ccc([C@@H]2[C@@H]3C(=O)N(C(C)(C)C)C(=O)[C@@H]3[C@]3(Cc4ccccc4)C(=O)N(c4cccc(C)c4)C(=O)N23)cc1 | 3 | 5 | 7 | 6.6 | -4 | 3.0 | -10 | -6 | i | 4.7
Cc1cc(N=Cc2cc(Cl)ccc2O)no1 | -10 | 12 | 16 | -8.7 | 0 | -0.3 | -10 | 17 | i | -17
CCOc1cc(CNC2CCCC2)cc(Cl)c1OCc1ccc(F)cc1 | -13 | · | · | · | 18 | 3.9 | -6 | 19 | · | ·
CSc1ccc(CN2CCC(n3nccc3NC(=O)CCCc3ccccc3)CC2)cc1 | -18 | -7 | -17 | 3.0 | -8 | 7.8 | -4 | 2 | i | 2.8
O=C(NCc1ccco1)c1cccc(NS(=O)(=O)c2ccccc2F)c1 | -15 | -1 | -12 | -4.3 | -3 | 7.5 | 8 | ? | i | 5.0
O=C(Cc1cc(=O)[nH][nH]1)N/N=C/c1c(F)cccc1Cl | -16 | 12 | 8 | -1.7 | 2 | -2.5 | · | -3 | i | -1.3
Nc1cc(C(=O)OCC(=O)NNC(=O)c2ccccc2)ccc1Cl | -15 | 0 | 5 | -0.3 | 2 | · | -4 | 0 | i | 5.1
CCCCNC(=O)c1cc2c(=O)n3cccc(C)c3nc2n(Cc2ccncc2)c1=N | 16 | · | · | · | 9 | 188* | 6 | 14 | · | ·
CCN1C(=O)C(c2ccc(O)cc2)(c2ccc(O)cc2)c2ccccc21 | -7 | -5 | -10 | 5.8 | 0 | -1.0 | 12 | 39 | i | 0.2
CCN(c1ccc(OC)cc1)S(=O)(=O)c1cc(-c2cc(C)no2)ccc1C(C)C | 43 | -3 | -1 | 0.1 | 15 | 0.6 | -7 | 1 | i | -4.7
COc1cc(-c2ccc3sc(-c4ccsc4)c(C#CCO)c3c2)cc(OC)c1OC | · | 12 | 2 | -1.4 | 6 | · | -1 | · | i | 1.9
O=C(Nc1ccc(Br)cn1)c1cccc(-c2cc3ccccc3oc2=O)c1 | -1 | 6 | 5 | 7.0 | 1 | 2.8 | -18 | -5 | i | -2.2
O=C(NCCc1ccncc1)C12CC3CC(CC(C3)C1)C2 | -1 | · | · | · | 7 | 0.2 | -13 | -8 | · | ·
Cc1cc(OCC(=O)Nc2ccc3oc(-c4ccncc4)nc3c2)ccc1Cl | 35 | · | · | · | 2 | 2.1 | -1 | 14 | · | ·
O=C(NCc1ccccc1)C(c1cccnc1)N(C(=O)c1csnn1)c1ccc(F)cc1 (stereo not given) | 8 | · | · | · | -3 | -2.8 | -13 | -4 | i | 2.3
CC(C)OC(=O)CSc1nnc(CNc2nc(-c3ccccc3)cs2)n1C | -8 | · | · | · | -14 | -0.6 | -14 | 2 | · | ·

Continued; the last five above are carried over.
Molecule | T cruzi inh | rRNA inh HTS | rRNA inh HTS OD600 | rRNA inh HTS RFP | Beta apoptosis | RanGTP-Impb inh | ALR H2O2 inh | Calb FLC | FGF22 binding | AF4-AF9 inh
O=C(Nc1ccc(Br)cn1)c1cccc(-c2cc3ccccc3oc2=O)c1 | -1 | 6 | 5 | 7.0 | 1 | 2.8 | -18 | -5 | i | -2.2
O=C(NCCc1ccncc1)C12CC3CC(CC(C3)C1)C2 | -1 | · | · | · | 7 | 0.2 | -13 | -8 | · | ·
Cc1cc(OCC(=O)Nc2ccc3oc(-c4ccncc4)nc3c2)ccc1Cl | 35 | · | · | · | 2 | 2.1 | -1 | 14 | · | ·
O=C(NCc1ccccc1)C(c1cccnc1)N(C(=O)c1csnn1)c1ccc(F)cc1 (stereo not given) | 8 | · | · | · | -3 | -2.8 | -13 | -4 | i | 2.3
CC(C)OC(=O)CSc1nnc(CNc2nc(-c3ccccc3)cs2)n1C | -8 | · | · | · | -14 | -0.6 | -14 | 2 | · | ·
Cc1ccc(-n2cc(CN(C)Cc3nccn3C)c(-c3ccc(F)cc3)n2)cc1 | 48 | -56 | -80 | -18 | 1 | -4.5 | 4 | -26 | · | 23
Cc1ccn2c(=O)nc(SCC(=O)NCc3ccco3)nc2c1 | -13 | 17 | 22 | 1.3 | -3 | ? | · | 3 | i | -17
O=C(O)c1cccnc1Oc1ccccc1 | -16 | · | · | · | -1 | 5.7 | 3 | 0 | · | ·
Cc1cc(Br)cn2cc(C(=O)O)nc12 | 0 | 5 | 3 | -2.9 | · | -1.0 | -16 | 1 | i | -1.1
COc1ccc(OCC(=O)Nn2c(-c3cccc(OC)c3)nc3ccccc3c2=O)cc1 | -5 | · | · | · | -6 | -0.4 | 2 | 18 | i | -1.3
CCn1c(CCNC(=O)c2ccc(Cl)c(Cl)c2)nnc1SCCOc1ccc(OC)cc1 | 2 | · | · | · | 5 | -2.9 | 0 | -6 | · | ·
CCCCN(C(=O)CCn1c(=O)oc2ccccc21)c1ccccc1 | 7 | -27* | -20* | -2.5* | -1 | 4.6 | 0 | 3 | i | -12
CCCCOc1ccc(C(=O)N2CCN(CC(=O)Nc3ccc(C)cc3)CC2)cc1OC | 1 | -9 | -8 | 7.3 | 1 | 2.3 | -1 | 6 | · | 11
O=c1cc(N2CCc3ccccc32)[nH]c(=O)n1-c1ccccc1 | -13 | · | · | · | 7 | 8.3 | -7 | 4 | · | ·
O=C(COC(=O)c1ccc(Cl)c(S(=O)(=O)N2CCCCCC2)c1)Nc1ccccc1 | -6 | · | · | · | -9 | 3.5 | 61 | -10 | i | -3.2
COCCNC(=O)CN(c1ccc(F)cc1)S(=O)(=O)c1ccc2c(c1)OCCO2 | -10 | -2 | 1 | -0.1 | -2 | -0.8 | 0 | -10 | i | -10
Cc1ccc(-n2c(CCc3ccccc3)nnc2SCC(=O)NCc2ccccc2)cc1C | 14 | · | · | · | 1 | 1.7 | -1 | 11 | · | ·
COc1ccc(OC)c(NC(=O)c2ccc(CSc3ncccn3)cc2)c1 | 1 | -39 | -40 | -8.7 | -1 | 0.9 | -22 | -3 | i | 0.1
CN(C)S(=O)(=O)c1ccc(C(=O)Nc2ccc(F)cc2F)cc1 | -12 | -9 | 1 | -3.2 | 4 | 1.8 | -2 | 4 | i | -6.9
C/C(=N\NC(=O)COc1ccc(C#N)cc1)c1ccccc1OC(F)F | 1 | · | · | · | 5 | -1.6 | 4 | -7 | · | ·
Cc1ccc(S(=O)(=O)N2CCCC(N3CCOCC3)C2)cc1Cl (stereo not given) | 4 | 1 | 8 | -0.2 | · | 0.1 | · | -4 | i | -1.1
O=C(Nc1nccs1)c1cc2c(s1)-c1ccccc1OC2 | -33 | -4 | 3 | 0.2 | · | 4.3 | -1 | -3 | i | -0.5
Cc1cc(C)cc(NC(=O)c2ccc3nc[nH]c3c2)c1 | -1 | -5 | -9 | -2.5 | -5 | -1.4 | 6 | 5 | · | 1.6
O=C(CSc1nnnn1-c1ccc2c(c1)OCO2)NCc1cccs1 | 3 | · | · | · | -2 | 5.4 | -4 | -40 | · | ·
COc1cccc(NC(=O)CSc2nc(=O)n(Cc3ccncc3)c3c2CCCC3)c1 | -3 | 6 | 11 | 2.5 | · | 5.2 | 1 | 2 | · | -0.7
Cc1ccc(OCCNCc2ccccc2)c(C)c1 | 8 | -1 | 3 | -3.7 | 3 | ? | 0 | -11 | i | 4.2
CC(C)(C)NC(=O)C1CCC(CNc2c(N3CCCCC3)c(=O)c2=O)CC1 (stereo not given) | -3 | 8 | -3 | -2.0 | -5 | 0.7 | -1 | -3 | i | 3.4
O=C(NCCc1ccccc1)C1CCN(S(=O)(=O)c2ccc(Br)s2)CC1 | 19 | · | · | · | 3 | -1.4 | 1 | 38 | · | ·
c1ccc(-c2csc3ncnc(NCC4COc5ccccc5O4)c23)cc1 (stereo not given) | -16 | -35 | -38 | -10 | 127* | 0.2 | 5 | 16 | i | -1.5
COc1ccc(NC(=O)COC(=O)c2cnccn2)cc1Cl | -15 | · | · | · | 1 | 1.3 | 27 | -4 | · | ·

The listing continues.
Molecule | T cruzi inh | rRNA inh HTS | rRNA inh HTS OD600 | rRNA inh HTS RFP | Beta apoptosis | RanGTP-Impb inh | ALR H2O2 inh | Calb FLC | FGF22 binding | AF4-AF9 inh
CCOC(=O)N1CCC(n2c(SCC(=O)NCCc3ccc(S(N)(=O)=O)cc3)nc3ccccc3c2=O)CC1 | 23 | -1 | -4 | 10 | 0 | -2.6 | 19 | 41 | i | 2.7
CC(C)(O)C#Cc1ccc(C(=O)Nc2ccc3c(c2)OCO3)s1 | 13 | -12 | 1 | 2.1 | 9 | 1.5 | -5 | -1 | i | 2.3
COc1ccc(Oc2cnn(-c3ccccc3)c(=O)c2Br)cc1 | -10 | -3 | -6 | 2.5 | -5 | -1.8 | 49 | 2 | i | -6.3
O=C(Nc1cccc(F)c1)C1CCCN1C(=O)OCc1ccccc1 (stereo not given) | -11 | -11 | 1 | 3.0 | -2 | 0.3 | 4 | 15 | i | 0.6
CCOC(=O)C1(Cc2cccc(Cl)c2)CCCN(C(=O)CN2C(=O)CSC2=O)C1 (stereo not given) | 2 | -4 | -6 | -1.9 | 1 | 3.1 | -4 | -3 | i | -0.1
